# Screening results as filed in PubChem BioAssay.
# Vaccinia pol inh – inhibitors of vaccinia virus processive DNA synthesis (E9 polymerase); in vitro processive DNA synthesis, absorbance read-out; active compounds read low; some inactives read as strong as hits; 46,000 compounds, 0.94% hits; normalized absorbance, % (test concentration not listed);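 active means replicate mean up to 90% and picked by the depositor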;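 further: 100% = median of the test wells of a plate; 100 nL library stock went into each well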
# Starred values were filed as active, the others as inactive. These rows are one share of the data. The share of hits here may be higher or lower than overall.
# A first look (24 entries):
SMILES,Vaccinia pol inh
COCc1cc(C)[nH]c(=O)c1C#N,96.8
Cn1nc(C(=O)NC2CCCc3ccccc32)c2c1-c1ccccc1SC2 (stereo unspecified),105.7
COc1ccc2cc3cc(C(=O)NCC4COc5ccccc5O4)sc3nc2c1 (stereo unspecified),103.4
COC(=O)Cc1cn(-c2ncc(C(F)(F)F)cc2Cl)c2ccccc12,101.0
CC(=O)Nc1ccc(S(=O)(=O)NC2CCCC2)cc1,92.2
O=C(O)/C=C/c1ccc(I)o1,70.2
O=C(NCCc1ccccc1)C1CC(=O)N(c2ccc(F)c(Cl)c2)C1 (stereo unspecified),112.9
O=C(Oc1ccccc1)c1cc2cc(Br)ccc2oc1=O,99.9
O=c1oc2ccccc2cc1-c1cn2cc(Cc3ccccc3Cl)sc2n1,100.7
Cc1nc(Cl)c(C(=O)N(C)c2ccccc2)c(C)c1Cl,104.9
Cc1cccc(C(=O)NCC(=O)OCc2ccc(F)cc2)c1,96.5
COCC(C)NC(=O)Cn1nc(C)c(NC(=O)c2cc(-c3ccccc3F)no2)c1C (stereo unspecified),91.5
Cc1ccc(-n2nc(C)c3c(C)cc(=O)oc32)cc1C,100.9
CCOC(=O)c1cc(-c2ccccc2)n(CC(=O)N(C)c2ccc(C)cc2)c1C,88.4
O=C(Nn1cnc2ccccc2c1=O)C1CCCCC1,99.5
Cc1c(-c2cccc(Cl)c2)nc2ccccc2c1C(=O)OCC(N)=O,94.1
Nc1cc(C(=O)OCCOc2ccc(Br)cc2)ccc1Cl,101.1
COc1cccc(OCC(=O)NCC(=O)O)c1,99.1
CCOC(=O)c1c(-c2ccc(OC)cc2)cn2ccccc12,110.5
O=C(O)c1c(CNCCc2c[nH]c3ccccc23)c2ccccc2n1Cc1ccccc1,99.3
O=C(NCc1ccsc1)c1ccc2c(c1)OCCCO2,100.1
COc1ccc(NC(=O)COCC(=O)O)cc1OC,89.5
O=C(/C=C/c1cccs1)Nc1ccc(-c2nnc3n2CCCCC3)cc1,105.4
CC(C)c1ccc(N2CC(C(=O)O)CC2=O)cc1 (stereo unspecified),98.5

# This part in full, from the first entry:
SMILES,Vaccinia pol inh
COCc1cc(C)[nH]c(=O)c1C#N,96.8
Cn1nc(C(=O)NC2CCCc3ccccc32)c2c1-c1ccccc1SC2 (stereo unspecified),105.7
COc1ccc2cc3cc(C(=O)NCC4COc5ccccc5O4)sc3nc2c1 (stereo unspecified),103.4
COC(=O)Cc1cn(-c2ncc(C(F)(F)F)cc2Cl)c2ccccc12,101.0
CC(=O)Nc1ccc(S(=O)(=O)NC2CCCC2)cc1,92.2
O=C(O)/C=C/c1ccc(I)o1,70.2
O=C(NCCc1ccccc1)C1CC(=O)N(c2ccc(F)c(Cl)c2)C1 (stereo unspecified),112.9
O=C(Oc1ccccc1)c1cc2cc(Br)ccc2oc1=O,99.9
O=c1oc2ccccc2cc1-c1cn2cc(Cc3ccccc3Cl)sc2n1,100.7
Cc1nc(Cl)c(C(=O)N(C)c2ccccc2)c(C)c1Cl,104.9
Cc1cccc(C(=O)NCC(=O)OCc2ccc(F)cc2)c1,96.5
COCC(C)NC(=O)Cn1nc(C)c(NC(=O)c2cc(-c3ccccc3F)no2)c1C (stereo unspecified),91.5
Cc1ccc(-n2nc(C)c3c(C)cc(=O)oc32)cc1C,100.9
CCOC(=O)c1cc(-c2ccccc2)n(CC(=O)N(C)c2ccc(C)cc2)c1C,88.4
O=C(Nn1cnc2ccccc2c1=O)C1CCCCC1,99.5
Cc1c(-c2cccc(Cl)c2)nc2ccccc2c1C(=O)OCC(N)=O,94.1
Nc1cc(C(=O)OCCOc2ccc(Br)cc2)ccc1Cl,101.1
COc1cccc(OCC(=O)NCC(=O)O)c1,99.1
CCOC(=O)c1c(-c2ccc(OC)cc2)cn2ccccc12,110.5
O=C(O)c1c(CNCCc2c[nH]c3ccccc23)c2ccccc2n1Cc1ccccc1,99.3
O=C(NCc1ccsc1)c1ccc2c(c1)OCCCO2,100.1
COc1ccc(NC(=O)COCC(=O)O)cc1OC,89.5
O=C(/C=C/c1cccs1)Nc1ccc(-c2nnc3n2CCCCC3)cc1,105.4
CC(C)c1ccc(N2CC(C(=O)O)CC2=O)cc1 (stereo unspecified),98.5
O=C1CCCN1CCCNc1nc2ccccc2n2nnnc12,101.3
CN1CCN(CCNC(=O)c2nc(-c3cccnc3)no2)CC1,107.4
FC(F)(F)c1ccc(-c2nnc(SCc3ccncc3)n2Cc2ccco2)cc1,95.3
O=c1ssc(=NCc2ccccc2)n1Cc1ccccc1,95.7
NC(=O)c1sc2nc(-c3ccccc3)ccc2c1N,99.4
Cc1cc(C)cc(NC(=O)COc2ccccc2C)c1,99.3
O=C1CN(C(=O)CC2CCCCC2)C(c2ccccc2)c2cc(Br)ccc2N1 (stereo unspecified),77.1
Clc1ccc(OCOc2ccc(Cl)cc2)cc1,112.7
CN1CCN(c2ccccc2NC(=O)C(Cc2ccccc2)n2cccc2)CC1 (stereo unspecified),95.4
NC(=O)c1c(NC(=O)COc2ccc(Cl)cc2)sc2c1CCN(Cc1ccccc1)C2,98.8
Nc1ccc(OC(F)(F)F)cc1,100.6
Cc1cc(C)c(CSCCn2c(C)ccc2C)c(C)c1,99.7
COc1cc(C(=O)CN2C(=O)c3ccccc3C2=O)c(OC)cc1Br,100.6
CCOC(=O)c1ccc(N2C(=O)C(Oc3ccccc3)C2c2ccc(OCC)cc2)cc1 (stereo unspecified),101.3
c1ccc(CNc2nc3ccccc3n3cnnc23)cc1,102.1
O=C(Cc1ccccc1)NC1CCN(C(=O)c2ccco2)CC1,101.5
CCOC(=O)n1c(=S)oc2ccccc21,96.4
S=C(NCc1ccccc1)N1CCn2c(nc3ccccc32)C1,101.8
CC(C)(C)c1nnc(-c2ccc(Oc3cc(Cl)cc(Cl)c3)o2)o1,99.3
CCOc1ccc(C(=O)OCC(=O)NC2CCCCC2C)cc1 (stereo unspecified),98.6
O=c1oc2ccc3ccccc3c2c2c1SC(C(F)(F)F)C2 (stereo unspecified),100.3
Cc1c(S(=O)(=O)c2ccc(Cl)cc2)csc1C(=O)N(c1ccccc1)S(C)=O (stereo unspecified),100.8
CCc1ccc(C2CC(=O)N3CN(c4ccccc4)CSC3=C2C#N)cc1 (stereo unspecified),96.5
O=C(CSc1ncnc2ccccc12)Nc1ccccc1,90.9
Cc1ccc(-n2c(-c3nn(C)cc3Cl)n[nH]c2=S)cc1,100.0
CCOC(=O)c1cc(C)sc1/N=C/C1C(=O)CCCC1=O,100.2

# The results go on.
SMILES,Vaccinia pol inh
Nc1nnnn1CC(=O)OCC(=O)Nc1ccccc1,99.6
O=c1sc2ccccc2n1Cc1ccccc1,109.6
COC(=O)C1=CN(c2ccc(F)cc2)C=C(C(=O)OC)C1c1cccc(O)c1,100.3
COc1cccc(N2C(=S)NC3c4ccccc4OC2(C)C3C)c1 (stereo unspecified),95.5
Cc1ccc(C(=O)NCCc2nnc3ccc(SCC(=O)NC4CCCCC4)nn23)cc1,100.6
COc1ccccc1CNc1ccc2c(c1)ncn2-c1ccccc1OC,100.1
CC(C)Cn1c(CCCO)nc2ccccc21,89.5
CC1=C(C(=O)Nc2ccccc2)C(c2ccccc2)C2=C(N1)c1ccccc1C2=O (stereo unspecified),97.6
CC1=NN(c2ccc(C(=O)O)cc2)C(=O)C1,100.7
CCCn1c(=O)c(C#N)cn(C2CC2)c1=O,89.0
COc1ccc(CC#N)cc1OC,101.4
Nc1cc(=O)[nH]c(S/C=C/c2ccccc2)n1,97.9
Cc1nc(SCc2ccccc2)nc2c1CCC2,110.6
CCOc1ccccc1NC(=O)N1CCCN(c2ncccc2C#N)CC1,93.4
Cc1ccc(NC(=O)Cn2nnc(-c3ccccc3)n2)cc1,97.8
CCCCC/C=C\C/C=C\C/C=C\CCCCC(=O)O,99.3
COc1ccc(CCn2cnc3sc4c(c3c2=N)CCCC4)cc1OC,100.0
Cc1ccc2c(c1)sc(=NC(=O)C(C)C)n2C,101.6
COC(=O)Cc1ccc(Oc2ncc(C(F)(F)F)cc2Cl)cc1,80.0
CCSc1nc2ccccc2n1S(=O)(=O)c1ccccc1,99.9
O=C(CC12CC3CC(CC(C3)C1)C2)Nc1ccc2c(c1)COC2=O,100.9
CCOC(=O)CCC1(CCC(=O)OCC)c2ccccc2-c2nc3ccccc3cc21,99.5
COc1ccc2c(c1)[C@]13CCCC[C@@H]1[C@H](C2)N(C)CC3,100.0
CNC(=O)NC1CCCCc2sccc21 (stereo unspecified),107.7
CC(C)CCn1cnc2c(NCc3ccccc3)ncnc21,104.7
COC(=O)c1scc(C)c1S(=O)(=O)Nc1ccc(C)cc1,100.9
CC1CC(OCC(O)CN2CCN(c3ccccc3F)CC2)CC(C)(C)C1 (stereo unspecified),100.1
O=C(NCc1ccccn1)c1cc(-c2cccnc2)nc2ccccc12,104.7
CC(C)c1ccc(S(=O)(=O)N2CCCCC2)cc1,91.6
Cc1ccc(SCCC(=O)N2CCN(c3ncc(C(F)(F)F)cc3Cl)CC2)cc1,101.9
CC1(C)C(C=C(Cl)Cl)C1C(=O)N1CCCCC1 (stereo unspecified),102.0
c1ccc(-c2nc3ccccn3c2Nc2ccc3c(c2)OCCO3)cc1,99.8
CCC(Sc1nnc(C)n2c1cc1oc(C)cc12)C(=O)Nc1cccc(OC)c1 (stereo unspecified),101.8
O=C(COC(=O)c1cccc(Cl)c1)c1ccccc1,100.9
FC(F)(F)c1cccc(NCn2nc(-c3ccccc3)oc2=S)c1,100.5
Cc1c(C(C)C)c(=O)oc2cc(O)ccc12,91.3
O=C(c1snc2ccc(Cl)cc12)N1CCN(c2ccccc2)CC1,83.8
Cc1cc(C)c(COC(=O)c2nonc2N)c(C)c1,100.3
CC(C)(C)n1c(-c2ccncc2)n[nH]c1=S,105.7
Oc1ccc2ccccc2c1C(c1ccccc1)N1CCCCC1 (stereo unspecified),108.6
CCOC(=O)/C=C1\CCCCCN1,100.4
CC1C(O)CC(c2ccccc2)N(C)C1c1ccccc1 (stereo unspecified),100.6
Cc1sc(/N=C/c2cn(Cc3ccccc3)c3ccccc23)c(C#N)c1C,100.0
OCC1CCCN(C(=S)NCc2ccccc2)C1 (stereo unspecified),97.7
Cc1ncoc1C(=O)NCc1ccc(Cl)cc1,97.9
CN(C(=O)c1ccccc1)c1ccc(OCC(=O)NC2CCS(=O)(=O)C2)cc1 (stereo unspecified),99.9
Cc1ccc(Nc2cc(=O)[nH]n2C)cc1Cl,102.9
CCOc1ccc(-c2nonc2NC(=O)c2oc3cc(C)c(Cl)cc3c2C)cc1OCC,110.1
CC(=O)Nc1cc2ccc(OC(C)=O)cc2oc1=O,99.4
Cc1ccc(C(O)CN=Cc2c(O)ccc3ccccc23)cn1 (stereo unspecified),88.1

# Other records follow.
SMILES,Vaccinia pol inh
COc1ccc(C2/C(=C(\O)c3ccc(F)cc3)C(=O)C(=O)N2c2nnc(C)s2)cc1OC (stereo unspecified),100.1
COc1cccc(OCCNC(=O)c2cc(C(F)(F)F)cc(C(F)(F)F)c2)c1,100.1
O=C(OCC(O)CO)c1ccccc1Nc1ccnc2cc(Cl)ccc12 (stereo unspecified),102.2
COC(=O)c1[nH]nc2c1C(=O)N(c1ccc(F)cc1)C2=O,107.9
Cc1c(C(=O)N2CCc3ccccc32)oc2c1C(=O)CC(C)(C)C2,102.7
CCc1cccc(NC(=O)C(NC(=O)C2CCC(C)CC2)C(C)C)c1 (stereo unspecified),107.3
Cc1cc(Cc2cc(C)c(N)c(C)c2)cc(C)c1N,100.8
O=C(O)COc1ccc(NS(=O)(=O)c2cccc3nsnc23)cc1,101.3
O=C1C=C(Nc2cccc3ccccc23)CCC1,94.8
CC(C)(C)NC(=O)Nc1ccc2ccccc2c1,87.7
Cc1c(C(=O)N2CCC(C(=O)N3CCCCC3)CC2)oc2cc3sc(N(C)C)nc3cc12,93.9
Cc1cc(C(=O)OCC(N)=O)c(C)n1-c1ccccc1,101.4
O=C(/C=C/c1ccco1)Nc1ccc(S(=O)(=O)N2CCCCCC2)cc1,108.3
N#CC1=C(N)SC(c2cccs2)C(C#N)=C1N (stereo unspecified),93.1
O=S(=O)(NC1=NCCCCC1)c1ccc(F)cc1F,99.0
CCc1cccc(NC(=O)COc2cc(=O)n(C)c3ccccc23)c1,100.1
COc1ccc(-c2noc(CN(C(=O)Nc3cccc(Cl)c3)C3CCCCC3)n2)cc1OC,75.1
CC1(C)CC(NC(=O)C23CC4CC(CC(C4)C2)C3)CC(C)(C)N1,88.7
CCSc1nnc(NC(=O)CSc2cn(CC)c3ccccc23)s1,100.0
O=S(=O)(c1ccc(N=Cc2c(O)ccc3ccccc23)cc1)N1CCCCC1,100.3
Cc1ccc(-c2noc(CCC(=O)N(C)C)n2)cc1,98.9
CCN1C(=O)/C(=C/c2cccc(OC)c2)SC1=S,100.1
Cc1cc(C)nc(SCC(=O)NC2CCCCC2)n1,102.9
CCC(=O)Nc1ccccc1-c1nc2ccccc2s1,94.9
CC(C)CCn1c(=O)c2cccnc2n(Cc2cccc(F)c2)c1=O,93.7
COc1cc2c(cc1OC)C1=C(C#N)COCN1CC2,100.2
Cc1cc(C)nc(N2CCOCC2)n1,100.4
CSc1ccccc1NC(=O)c1cc2n(n1)C(C(F)(F)F)C1CCc3ccccc3C1N2 (stereo unspecified),99.3
N#Cc1nc(-c2ccccc2F)oc1NCC1CCCO1 (stereo unspecified),100.2
CC(C)NC(=O)CSCc1ccc(Cl)cc1,94.1
Fc1ccc(-c2nnc3ccc(N4CCN(C(=S)NCc5ccccc5)CC4)nn23)cc1,100.9
COc1cccc(Nc2ccc(Nc3cccc(OC)c3)nn2)c1,90.5
O=C(O)C1CSC(c2ccccc2)N1 (stereo unspecified),95.8
CC1CCN(C(=O)COC(=O)c2ccc(N(C)C)cc2)CC1,102.3
Cc1cccc(NS(=O)(=O)c2ccc(CCN3C(=O)c4cccnc4C3=O)cc2)c1C,101.5
Cn1ccnc1SCC(=O)c1cccc(C(F)(F)F)c1,99.3
NC(=O)C1C2C=CC(C2)C1C(=O)O (stereo unspecified),99.7
COc1ccccc1-c1nc(-c2cccs2)cc(=O)o1,99.2
CCn1c(=O)c2cc(C(=O)NCCc3ccsc3)sc2c2ccccc21,105.5
COc1ccc(C(=O)Nc2ccc3[nH]ccc3c2)cc1,102.7
O=C(NCc1cccs1)c1cc(-c2ccccc2)nc2ccccc12,104.3
Cc1nnc(C)n1/N=C\c1cccc(OCc2ccccc2)c1,99.8
